High-throughput results: PubChem, National Center for Advancing Translational Sciences (NCATS)
TSHR agonist = activates the human thyroid stimulating hormone receptor | P16473 | AID 926 | HEK293-CNG-TSHR cells (CNG channel as cAMP sensor), membrane potential dye, cAMP | 73,000 tested, 0.48% active | Potency, µM (series often up to 57.1 µM), inactives show at the highest dose activation, actives largely listed as activators; active = well fitted activation curve of enough size with the parental cells flat; inconclusive = any curve in the parental cells; inactive = parental cells flat and receptor cells flat or falling; further: potency means the concentration at half of the fitted maximal effect; % of control where 0% means no effect; weak receptor curves with flat parental cells got no call and are not listed
Target sequence (P16473 whole entry, looked up): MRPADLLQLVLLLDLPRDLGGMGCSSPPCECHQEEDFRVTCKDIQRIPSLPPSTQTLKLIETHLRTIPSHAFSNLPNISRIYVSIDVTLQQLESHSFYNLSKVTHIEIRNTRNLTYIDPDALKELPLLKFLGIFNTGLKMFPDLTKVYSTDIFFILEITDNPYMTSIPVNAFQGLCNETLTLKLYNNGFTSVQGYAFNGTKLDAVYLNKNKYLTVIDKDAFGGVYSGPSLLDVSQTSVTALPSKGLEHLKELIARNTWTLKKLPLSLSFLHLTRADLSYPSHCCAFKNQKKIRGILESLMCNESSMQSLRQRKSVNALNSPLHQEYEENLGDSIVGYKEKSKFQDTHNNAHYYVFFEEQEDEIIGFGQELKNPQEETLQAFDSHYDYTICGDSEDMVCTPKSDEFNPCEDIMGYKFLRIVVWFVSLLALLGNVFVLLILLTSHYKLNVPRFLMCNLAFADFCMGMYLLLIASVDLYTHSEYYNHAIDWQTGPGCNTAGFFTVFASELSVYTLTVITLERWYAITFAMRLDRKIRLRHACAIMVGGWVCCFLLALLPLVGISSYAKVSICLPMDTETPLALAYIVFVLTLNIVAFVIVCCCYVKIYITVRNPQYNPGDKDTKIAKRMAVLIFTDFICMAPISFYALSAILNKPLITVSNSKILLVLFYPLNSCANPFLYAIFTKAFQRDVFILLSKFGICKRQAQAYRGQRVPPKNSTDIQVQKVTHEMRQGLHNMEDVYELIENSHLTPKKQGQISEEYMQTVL
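HEK 293 cells stably expressing TSHR and a modified CNG channel, with CNG-only parental cells as counterscreen, were preloaded 60 min at room temperature with membrane potential dye containing 100 uM RO 20-1724. Compound exposure was 30 min, and depolarization was read as fluorescence at 590 nm.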
Resorufin fluor = resorufin region autofluorescence. Compound fluorescence, resorufin region 547/598 nm, buffer; hits give high values. max dye-equivalent concentration, M. AID 588. 59,000 tested, 0.04% active; active = above 10 nM dye equivalent; inconclusive = 1 to 10 nM; inactive = 1 nM or less; a few of its hits are not listed in these tables; further: highest value over a series up to 38 µM
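Intrinsic fluorescence profiled in the resorufin window (ex 547 nm, em 598 nm) after 15 min at room temperature in pH 8.0 Tris buffer (100 mM); responses normalized against a six-point resorufin standard series as dye-equivalent concentration.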
A488 fluor = A488 region autofluorescence; compound autofluorescence, A488 spectral region, dye equivalency; hits give high values; max dye equivalency, M; 59,000 tested, 0.1% active; active = above 10 nM dye equivalent; inconclusive = 1 to 10 nM; inactive = 1 nM or less; about half of its hits are not listed in these tables;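 further: highest value over a series up to 38 µM; compound alone in buffer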
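Readout is A488 dye-equivalent concentration, calibrated by a per-plate six-point Alexa 488 series. Compounds in 100 mM Tris buffer pH 8.0 were incubated 15 min at room temperature. Plates were imaged using 480 nm excitation/540 nm emission filters.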
AID923 = qHTS Assay for Allosteric/Competitive Inhibitors of Caspase-1: Spectroscopic Profiling in AFC Spectral Region | compound fluorescence, AFC spectral region (405/520 nm); almost no hit is shown here | Potency, µM (highest dose often 57.5 µM), for the others: top-dose fluorescence increase, most hits filed as activators | 75,000 tested, 1.1% active | AID 923, 2007; active means well fitted activation curve with a large enough effect; inconclusive means small, poorly fitted or top-dose-only effect;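 further: potency means the concentration at half of the fitted maximal effect; 0% is about no effect; scaled to a free AFC standard on each plate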
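Titrations up to 57 uM read every 20 sec for 3 min (405/520 nm) with 50 nM caspase 1 and 5 uM Ac-WEHD-AFC, pH 7.5 HEPES buffer. Fluorescence-vs-time intercept gave baseline, scaled against on-plate AFC standard.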
A647 autofl = compound fluoresces in the A647 spectral region; 59,000 tested, under 10 active; AID 592; max dye-equivalent concentration, M; Compound fluorescence, A647 channel (570/671 nm), Tris buffer; active means above 1 µM dye equivalent; inconclusive means 0.1 to 1 µM; inactive means 0.1 µM or less;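 further: values scaled relative to a standard on each plate; highest value over a series up to 38 µM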
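Tris 100 mM pH 8.0; cpd + A647 stds pin-transferred; 15 min RT; CCD imager, ex 570/em 671. Output = A647-equivalent conc. per cpd conc.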
Starred values were filed as active, the others as inactive; i = inactive; ? = inconclusive; / = not tested or not shown; & = joins results of further samples; [ ] = dose if it differs, or a comment. The list is partial; rates above refer to the full screens.

SMILES	TSHR agonist	Resorufin fluor	A488 fluor	AID923	A647 autofl
Cc1nc2ccccn2c1/C(O)=C1\C(=O)C(=O)N(CCCN(C)C)C1c1ccc(Cl)cc1 (stereo not given)	1%	/	/	-1.2%	/
Cn1c(SCC(=O)NCCN2C(=O)CSC2=O)nc2ccccc2c1=O	2%	i	i	-0.7%	3.7e-08
O=C(C(Cc1ccccc1)N1C(=O)C2C3C=CC(C3)C2C1=O)N1CCCCC1 (stereo not given)	?	/	/	1.1%	/
COc1ccc(CCNC(=O)Cn2cnc3c(nnn3Cc3ccccc3F)c2=O)cc1OC	2%	i	i	-0.4%	5.6e-09
O=C(N1CCOCC1)C1(c2ccccc2)CCCCC1	-9%	i	i	0.9%	1e-09
CCn1cc(Br)c(C(=O)NCc2ccco2)n1	0%	i	i	-4.0%	8e-09
c1ccc(Nc2nn[nH]n2)cc1	3%	i	i	0.2%	1.6e-08
N#CCCSCc1ccc(OCC(=O)O)cc1	/	i	i	/	1e-09
CC(=O)Nc1ccc(-c2cc3ccccc3o2)cc1	/	i	i	/	1e-09
CCOc1ccc(NC(=O)C2CC(=O)N(c3cc(C)cc(C)c3)C2)cc1 (stereo not given)	14%	i	i	-0.1%	1e-08
Cc1cc(C)nc(NCCCc2ccccc2)n1	5%	i	i	1.3%	2.6e-08
COc1cccc(NC(=O)CN(c2ccc(C)cc2)S(=O)(=O)c2c(C)nn(C)c2C)c1	2%	i	i	2.0%	1e-09
COCc1c(C(=O)OCC(=O)N2c3ccccc3NC(=O)C2(C)C)oc2ccccc12	?	i	i	-0.1%	2e-09
O=C(CN1C(=O)CCS(=O)(=O)c2ccccc21)Nc1cccc(Cl)c1	-4%	i	i	-0.1%	1e-09
CCc1ccc(N/C(SCc2cccc(F)c2)=C(/C#N)C(=O)NCc2ccco2)cc1	?	i	i	2.1%	1.3e-08
CCOC(=O)C1C(=O)CC(C)(O)C(C(=O)OCC)C1/C=C/c1ccccc1 (stereo not given)	?	/	/	-1.2%	/
COc1ccc(-c2nnc3n2N=C(c2ccccc2)CS3)cc1OC	15%	i	i	-5.3%	2e-08
COc1ccccc1Nc1ncccc1C(=O)O	18%	i	i	0.8%	1e-09
O[C@@H](c1cc(C(F)(F)F)nc2c(Cl)cc(Cl)cc12)[C@@H]1CCCCN1	-3%[11.4 µM]	i	i	-3.4%[11.5 µM]	1.9e-08
CCN(CCCNC(=O)C1CCC(=O)N1C1CCCC1)c1cccc(C)c1 (stereo not given)	2%	i	i	-2.1%	2.9e-09
CCN(C(=O)CSc1nncs1)c1c(N)n(Cc2ccccc2)c(=O)[nH]c1=O	1%	i	i	1.5%	1e-09
O=C(c1ccc2c(c1)[nH]c(=S)n1c3ccccc3nc21)N1CCN(c2ncccn2)CC1	-4%	i	i	-0.2%	1e-09
O=C(O)CSCc1cnn(-c2ccccc2)c1-n1cccc1	-1%	i	i	-0.8%	3.2e-08
Cc1ccc(C[C@H](Cc2nc3ccccc3[nH]2)c2nc3ccccc3[nH]2)cc1	22%	i	i	/	4.2e-09
Cc1cc2c(cc1S(N)(=O)=O)S(=O)(=O)CCC2	-12%[25.6 µM]	i	i	-3.9%[25.7 µM]	6e-09

7 structures out of the list, arranged by SMILES length, descending.
SMILES	TSHR agonist	Resorufin fluor	A488 fluor	AID923	A647 autofl
COc1cccc(NC(=O)CN(c2ccc(C)cc2)S(=O)(=O)c2c(C)nn(C)c2C)c1	2%	i	i	2.0%	1e-09
Cc1ccc(C[C@H](Cc2nc3ccccc3[nH]2)c2nc3ccccc3[nH]2)cc1	22%	i	i	/	4.2e-09
CCOc1ccc(NC(=O)C2CC(=O)N(c3cc(C)cc(C)c3)C2)cc1 (stereo not given)	14%	i	i	-0.1%	1e-08
CCN(CCCNC(=O)C1CCC(=O)N1C1CCCC1)c1cccc(C)c1 (stereo not given)	2%	i	i	-2.1%	2.9e-09
COc1ccc(-c2nnc3n2N=C(c2ccccc2)CS3)cc1OC	15%	i	i	-5.3%	2e-08
Cc1cc(C)nc(NCCCc2ccccc2)n1	5%	i	i	1.3%	2.6e-08
N#CCCSCc1ccc(OCC(=O)O)cc1	/	i	i	/	1e-09

Further records.
SMILES	TSHR agonist	Resorufin fluor	A488 fluor	AID923	A647 autofl
CNc1cc(OC)c(C(=O)N[C@@H]2CCN(Cc3ccccc3)[C@H]2C)cc1Cl	7%	/	/	-4.1%	/
CCOc1ccc(CNC(=O)C2CCCN(S(C)(=O)=O)C2)cc1OC (stereo not given)	8%	i	i	0.7%	1e-09
O=C(O)C1CCCN1S(=O)(=O)c1ccc2c(c1)CCC2 (stereo not given)	13%	i	i	-0.2%	2e-08
Cc1ccc(C(=O)NC2CCS(=O)(=O)C2)cc1S(=O)(=O)N1CCOCC1 (stereo not given)	2%	i	i	1.9%	3.5e-09
CCOC(=O)Cc1nnc(NC(=O)CSc2nnc3c4ccccc4n(C)c3n2)s1	?	/	/	0.0%	/
CC(=O)CC(=O)NC(=NC1CCCCC1)Nc1nc(C)cc(C)n1	3%	i	i	0.2%	1e-09
COCCn1c(=O)c(-c2ccccc2)nc2cnc(Oc3ccc(OC)cc3)nc21	?	i	i	17%	5.2e-09
Cc1noc(C)c1COc1ccc(C(=O)OCC(=O)N2CC3(C)CC2CC(C)(C)C3)cc1 (stereo not given)	29%	i	i	0.3%	5.2e-08
Cn1c(NCCCN2CCOCC2)nc2c1c(=O)n(Cc1ccc(Cl)c(Cl)c1)c(=O)n2C	/	i	i	-0.7%	1e-09
Cc1[nH]c2ccc(-c3nnc(SCC(=O)NCc4ccco4)n3Cc3ccccc3)cc2c1C	/	i	i	0.8%	1e-09
CN(C)c1nc(NCc2ccccc2)nc(Oc2ccc(=O)[nH]n2)n1	20µM*	i	i	0.1%	1.5e-09
O=C(NCC1CCCO1)c1cc(-c2ccncc2)nc2ccc(S(=O)(=O)N3CCOCC3)cc12 (stereo not given)	?	i	i	-0.5%	3.2e-08
CCCCC(CCC(=O)O)(C(=O)OCC)c1csc(N)n1 (stereo not given)	11%	/	/	-1.3%	/
CCOC(=O)CN(C(=O)Cn1nnc(-c2ccc(C)cc2)n1)C(CC)C(=O)NC1CCCC1 (stereo not given)	1%	i	i	0.3%	3.7e-09
CCOc1ccccc1C1C(C(N)=O)=C(C)Nc2nc(CCCO)nn21 (stereo not given)	-14%	/	/	-1.8%	/
COc1ccc(NC(=O)c2cc(CC(C)C)on2)cc1OC	-12%	/	/	-2.2%	/
O=C(c1ccco1)N1CCN(c2cccc(Cl)c2)CC1	?	/	/	0.6%	/
Cn1cccc1Cc1nnc(SCC(=O)NCc2ccccc2)n1-c1ccc(F)cc1	1%	/	/	1.5%	/
Cc1c(C#N)c2ccccc2n1CC(=O)N1CCCC1	0%	i	i	1.6%	9.8e-09
Cc1cc(C)cc(OCC(=O)Nc2ccccc2C(=O)NCc2ccco2)c1	?	i	i	1.6%	1.9e-09
CC(OCC(O)CN(C)CCOc1ccccc1)c1ccc(Cl)cc1 (stereo not given)	24%	i	i	-0.8%	2.1e-08
CCn1c(CNC(C)=O)nnc1SCC(=O)c1ccc(Br)cc1	-4%	i	i	-1.1%	6.1e-09
CC(C)CCn1nnnc1C(c1ccccc1F)N1CCC(C(N)=O)CC1 (stereo not given)	5%	i	i	0.1%	4.9e-08
O=C1COc2ccc(C(=O)NCc3ccc4c(c3)OCO4)cc2N1	?	i	i	-0.6%	1e-09
Cc1ccc(-c2csc3nnc(SCC(=O)NCc4ccc5c(c4)OCO5)n23)cc1	20%	i	i	-2.1%	1.6e-08
(further entries)
SMILES	TSHR agonist	Resorufin fluor	A488 fluor	AID923	A647 autofl
CCOC(=O)CCS(=O)(=O)c1nc(-c2ccccc2)cc(C(F)(F)F)n1	14%	i	i	-2.5%	1e-09
CC(=O)/C=C(\C)Nc1ccc(-c2cnc(-c3ccccc3)o2)cc1	-18%[11.4 µM]	/	/	7.6%	/
Cc1cc(=O)oc2c(OS(C)(=O)=O)c(OS(C)(=O)=O)ccc12	/	i	i	5.3%[11.5 µM]	1e-09
COc1ccc(NC(C)=O)cc1NC(=O)CSc1nnc(-c2ccccn2)n1C	-8%	i	i	2.9%	3e-08
COc1cccc(N2CCN(C(=O)NC3CCCCC3)CC2)c1	2%	i	i	-2.3%	3.3e-08
Cc1cc(C)c(C#N)c(SCS(=O)c2ccc(C(C)(C)C)cc2)n1 (stereo not given)	?	i	i	-0.4%	3.1e-09
CCCCCOc1ccc(C(=O)NCC(=O)NCC(=O)OCC)cc1	/	i	i	/	6.8e-08
CC(C)Cn1c(=O)c2ccccc2c2ccccc2c1=O	/	i	i	-0.4%	3.4e-08
S=c1[nH]nc(Cc2ccccc2)n1-c1ccccc1	0%	i	i	-0.5%	2.4e-09
COc1ccc(N2C(=O)C3C4C=CC(C4)C3C2=O)c(OC)c1 (stereo not given)	10%	i	i	0.6%	4.7e-09
CC1(C)OC(=O)C(=CNc2ccccc2)C(=O)O1	2%	i	i	-0.1%	4.3e-08
CCn1c(N)c(C(=O)NC)sc1=S	10%[11.4 µM]	i	i	1.4%	3e-08
CCN(CC)CC[n+]1ccc2c(C)c3[nH]c4ccc(O)cc4c3c(C)c2c1	19%[11.4 µM]	i	i	-4.5%[11.5 µM]	3e-08
CC1CC(C)CN(c2ncc3c(n2)CC(c2ccccc2)CC3=O)C1 (stereo not given)	?	i	i	0.4%	3.6e-08
CCN(CC)CCN1C(=O)C(=O)/C(=C(/O)c2ccc(C)cc2)C1c1ccncc1 (stereo not given)	-14%	/	/	1.2%	/
Cc1noc(C)c1COc1ccc(C(=O)NCc2ccccn2)cc1	-3%	i	i	-0.6%	2.7e-08
CCOc1ccccc1C(=O)NCc1ccc2c(c1)OCO2	18%	i	i	-0.2%	8.3e-09
COC(=O)c1ccc2ncccc2c1	-3%	i	i	-0.2%	4.4e-08
O=C(O)CC(C(=O)OCCOc1ccccc1)N1CCOCC1 (stereo not given)	/	i	i	/	1e-09
C/C(=N\O)C(=O)OC1CC(C)CCC1C(C)C (stereo not given)	23%	/	/	-0.8%	/
CN1C(=O)CSc2ccc(NC(=O)N3CCC(N4CCCCC4)CC3)cc21	-6%	i	i	-0.1%	2.5e-08
CC(C)CC(c1nnnn1C1CCCC1)N1CCN(C(=O)c2ccco2)CC1 (stereo not given)	?	i	i	-0.4%	5.4e-09
COc1ccc(Oc2nc(C)nc3c2oc2ccccc23)cc1	?	i	i	0.0%	1e-09
CCS(=O)(=O)CCn1c([N+](=O)[O-])cnc1C	6%[25.6 µM]	i	i	-0.7%	1e-09&1.2e-09
CCc1nc(SCC(=O)NCc2ccco2)c2c3c(sc2n1)CCCC3	?	i	i	-0.8%	7.7e-09
(further entries)
SMILES	TSHR agonist	Resorufin fluor	A488 fluor	AID923	A647 autofl
Cc1cc(/C=N/n2cnnc2)c(C)n1-c1ccc(Cl)cc1Cl	?	/	/	-3.1%	/
O=C(COc1ccc(S(=O)(=O)NC2CCCCC2)cc1Cl)NCC1CCCO1 (stereo not given)	1%	i	i	-2.1%	5.3e-09
COC(=O)C1=C(C)NC(C)=C(C(=O)OCCN(C)Cc2ccccc2)[C@@H]1c1cccc([N+](=O)[O-])c1	-37%[inhibitor]	i	i	-1.2%	2.6e-08
CCOC(=O)c1sc2ncn(CC(=O)NCC3CCCO3)c(=O)c2c1C (stereo not given)	-6%[11.4 µM]	i	i	-0.4%	2e-08
COc1ccc(/C(O)=C2/C(=O)C(=O)N(c3nc(C)c(C)s3)C2c2ccco2)cc1 (stereo not given)	/	i	i	/	1.1e-09
O=C1C2CC=CCC2C(=O)N1c1ccc(Cc2ccncc2)cc1 (stereo not given)	23%	/	/	9.9%	/
O=c1ccnc(S/C=C/c2ccccc2)[nH]1	7%	i	i	0.2%	5.4e-09
